# AmpC inh detg: qHTS Inhibitors of AmpC Beta-Lactamase (assay with detergent). P00811. AmpC hydrolysis of nitrocefin, absorbance 480 nm, 0.01% Triton. Potency, µM (doses to about 114 µM), for inactives: top-dose activity change, negative = inhibition, usual class: inhibitors. hit rate 0.041% among 370,000. AID 485294, 2010;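 note: 0% = no-compound wells and -100% = no-enzyme wells; nearly all actives have a fitted effect of over 25% in size; some results filed as inactive show a strong effect at the top dose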
#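 AmpC (5.3 nM in the dispensed reagent) in 20 mM phosphate pH 7.0 with 0.01% (detergent screen) or 0.0001% Triton X-100 was preincubated with compounds for 15 min at room temperature. Nitrocefin was then added from an 800 uM solution, and hydrolysis was followed at 480 nm.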
# AmpC inh no detg: qHTS Inhibitors of AmpC Beta-Lactamase (assay without detergent); Potency, µM (highest dose often 57.1 µM), for the others: at the highest dose activity change, negative = inhibition, actives largely listed as inhibitors; AmpC nitrocefin hydrolysis, absorbance 480 nm, 0.0001% Triton; P00811; hit rate 0.52% among 330,000;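 note: plate controls were no compound for no effect and no enzyme for full effect; nearly all actives have a fitted effect of over 20% in size; some results filed as inactive show a strong effect at the top dose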
#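 20 mM phosphate pH 7.0 + 0.01% (detergent screen) or 0.0001% Triton X-100; 5.3 nM AmpC reagent; cpd preinc 15 min RT; nitrocefin (800 uM stock) to start; A480 q20 s × 4 min; Activity was normalised to no-enzyme and no-compound control wells.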
# FBPA Giardia inh: qHTS Assay for Inhibitors of Fructose-1,6-bisphosphate Aldolase from Giardia Lamblia. purified Giardia FBPA. Potency, µM (top dose mostly 59.6 µM), for inactives: at the highest dose activity, negative = inhibition, actives largely listed as inhibitors. hit rate 0.71% among 290,000. AID 2451, 2010; note: nearly all actives have a fitted effect of over 55% in size
# Target sequence (A8B2U2 whole entry, looked up): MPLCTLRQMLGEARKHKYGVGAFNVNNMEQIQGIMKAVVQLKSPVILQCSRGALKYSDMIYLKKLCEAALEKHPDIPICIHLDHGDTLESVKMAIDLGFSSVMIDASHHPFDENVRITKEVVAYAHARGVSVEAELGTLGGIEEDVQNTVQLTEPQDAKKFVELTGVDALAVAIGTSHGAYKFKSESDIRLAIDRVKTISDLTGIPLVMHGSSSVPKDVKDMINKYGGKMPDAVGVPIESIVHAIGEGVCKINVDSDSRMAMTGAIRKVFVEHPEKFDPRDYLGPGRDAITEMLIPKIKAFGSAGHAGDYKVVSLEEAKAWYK
#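 Giardia FBPA (40 nM reagent) was preincubated 10 min at RT with compound (up to 57.5 uM final), then substrate plus GAPDH/TPI/NAD/arsenate coupling system with diaphorase/resazurin was added; resorufin fluorescence (525/598 nm) was read after 20 min.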
# Active calls of the source: *; ? = inconclusive; · = not tested or not shown; & = joins results of further samples; [ ] = another dose, or the depositor's remark. Calls come from the whole dose curve; as a rule, active = well fitted curve in the direction sought with a large enough effect; inconclusive = small, poorly fitted or top-dose-only effect, or another doubt; inactive = no such curve, though single readings can be large; an effect the other way counts as inactive or inconclusive. Unless noted, % is set by controls: 0 for no effect and ±100 for the full control effect; potency is the fitted concentration of half-maximal effect. This is a subset; count on the stated rates, not on these rows.
1	O=C(O)COc1ccccc1/C=N/NC(=O)c1cc(-c2ccccc2)nc2ccccc12
  AmpC inh detg: 3% | AmpC inh no detg: -25% | FBPA Giardia inh: -7%
2	CC(C)(C(=O)O)c1ccc(C(O)CCCN2CCC(C(O)(c3ccccc3)c3ccccc3)CC2)cc1 (stereo unspecified)
  AmpC inh detg: -15% | AmpC inh no detg: -21% | FBPA Giardia inh: 1%&-30%&3%&0%
3	Cc1c(O)ccc2c(CN3CCOCC3)cc(=O)oc12
  AmpC inh detg: -15% | AmpC inh no detg: -20% | FBPA Giardia inh: 18%
4	NS(=O)(=O)c1ccc(NC(=O)Nc2ccc(C(F)(F)F)cc2)cc1
  AmpC inh detg: -6% | AmpC inh no detg: -46% | FBPA Giardia inh: -2%
5	CCOc1ccc2nc(S(N)(=O)=O)sc2c1
  AmpC inh detg: ? | AmpC inh no detg: -23% | FBPA Giardia inh: -7%&-11%
6	CN1Cc2c(N)cccc2[C@H](c2ccccc2)C1
  AmpC inh detg: · | AmpC inh no detg: · | FBPA Giardia inh: -1%[21.7 µM]
7	Cc1nc2ccc(S(=O)(=O)NCC(=O)NCCN3CCCCCC3)cc2s1
  AmpC inh detg: -1% | AmpC inh no detg: 91%[activator] | FBPA Giardia inh: 2%
8	Cc1cc(NC(=O)CSCC(=O)Nc2ccc(C)c(C)c2)no1
  AmpC inh detg: -2% | AmpC inh no detg: -14% | FBPA Giardia inh: ·
9	Cc1nc(-c2ccccc2)c(-c2ccccc2)[nH]1
  AmpC inh detg: ? | AmpC inh no detg: -4% | FBPA Giardia inh: 6%
10	Cc1ccc(-c2csc(NC3OC(=O)c4ccccc43)n2)cc1 (stereo unspecified)
  AmpC inh detg: -15% | AmpC inh no detg: -37% | FBPA Giardia inh: 1%
11	Cc1cccc(N2CCN(C(=O)c3cc4c(=O)n(C)c5ccccc5c4n3C)CC2C)c1 (stereo unspecified)
  AmpC inh detg: -18% | AmpC inh no detg: 76%[activator] | FBPA Giardia inh: ?
12	O=C(O)COCCN1CCN([C@H](c2ccccc2)c2ccc(Cl)cc2)CC1
  AmpC inh detg: -6% | AmpC inh no detg: 35% | FBPA Giardia inh: -19%
13	COc1ccc(/C(C)=N/NC(=O)c2nnn(-c3nonc3N)c2-c2cccs2)cc1OC
  AmpC inh detg: -2% | AmpC inh no detg: -12% | FBPA Giardia inh: ·
14	O=C(O)/C=C\C(=O)O
  AmpC inh detg: -24% | AmpC inh no detg: -8% | FBPA Giardia inh: ·
15	O=C1NC[C@H](c2ccccc2)OC(=O)[C@H](Cc2ccc(F)cc2)CC/C=C/C[C@H]1CC(=O)N(CCO)Cc1ccccc1
  AmpC inh detg: · | AmpC inh no detg: 183%[activator] | FBPA Giardia inh: ·

# 7 entries picked at random from those above, as already listed:
9	Cc1nc(-c2ccccc2)c(-c2ccccc2)[nH]1
  AmpC inh detg: ? | AmpC inh no detg: -4% | FBPA Giardia inh: 6%
3	Cc1c(O)ccc2c(CN3CCOCC3)cc(=O)oc12
  AmpC inh detg: -15% | AmpC inh no detg: -20% | FBPA Giardia inh: 18%
14	O=C(O)/C=C\C(=O)O
  AmpC inh detg: -24% | AmpC inh no detg: -8% | FBPA Giardia inh: ·
4	NS(=O)(=O)c1ccc(NC(=O)Nc2ccc(C(F)(F)F)cc2)cc1
  AmpC inh detg: -6% | AmpC inh no detg: -46% | FBPA Giardia inh: -2%
1	O=C(O)COc1ccccc1/C=N/NC(=O)c1cc(-c2ccccc2)nc2ccccc12
  AmpC inh detg: 3% | AmpC inh no detg: -25% | FBPA Giardia inh: -7%
2	CC(C)(C(=O)O)c1ccc(C(O)CCCN2CCC(C(O)(c3ccccc3)c3ccccc3)CC2)cc1 (stereo unspecified)
  AmpC inh detg: -15% | AmpC inh no detg: -21% | FBPA Giardia inh: 1%&-30%&3%&0%
15	O=C1NC[C@H](c2ccccc2)OC(=O)[C@H](Cc2ccc(F)cc2)CC/C=C/C[C@H]1CC(=O)N(CCO)Cc1ccccc1
  AmpC inh detg: · | AmpC inh no detg: 183%[activator] | FBPA Giardia inh: ·

# Going on with the list.
16	COc1ccc(C2CC(c3ccccc3)=NN2C(=O)CCCC(=O)O)cc1 (stereo unspecified)
  AmpC inh detg: 2% | AmpC inh no detg: -12% | FBPA Giardia inh: 12%
17	CN1C2CC(OC(=O)C(CO)c3ccccc3)CC1C1OC12 (stereo unspecified)
  AmpC inh detg: 0%&-6%&-3% | AmpC inh no detg: -9%&-9%&0% | FBPA Giardia inh: -2%&-22%&-3%
18	C[C@H]1C[C@@H](C)C(=O)[C@@H]([C@H](O)CC2CC(=O)NC(=O)C2)C1
  AmpC inh detg: 4% | AmpC inh no detg: -8% | FBPA Giardia inh: 6%
19	CC(=O)Nc1cccc(-c2nnc(-c3ccc(C)cc3)o2)c1
  AmpC inh detg: ? | AmpC inh no detg: -14% | FBPA Giardia inh: 10%
20	COc1ccc(-c2csc(Nc3ccccn3)n2)cc1
  AmpC inh detg: 6% | AmpC inh no detg: -31% | FBPA Giardia inh: -14%
21	Cc1ccc(N2C(=O)c3cccc4c(N)ccc(c34)C2=O)c2cccnc12
  AmpC inh detg: -7% | AmpC inh no detg: -40% | FBPA Giardia inh: 1%
22	CN1[C@@H]2CCC[C@H]1CC(NC(=O)c1nn(C)c3ccccc13)C2 (stereo partly specified)
  AmpC inh detg: 6% | AmpC inh no detg: -10% | FBPA Giardia inh: ·
23	CC(=O)Nc1ccc(NC(=O)C2(c3cccs3)CCOCC2)cc1
  AmpC inh detg: -5% | AmpC inh no detg: · | FBPA Giardia inh: ·

# One compound at a time, from the list above. Screens in order: AmpC inh detg	AmpC inh no detg	FBPA Giardia inh
# `CN1C2CC(OC(=O)C(CO)c3ccccc3)CC1C1OC12` (stereo unspecified) is listed with 0%&-6%&-3%	-9%&-9%&0%	-2%&-22%&-3%
# `COc1ccc(C2CC(c3ccccc3)=NN2C(=O)CCCC(=O)O)cc1` (stereo unspecified) is listed with 2%	-12%	12%
# `COc1ccc(-c2csc(Nc3ccccn3)n2)cc1` is listed with 6%	-31%	-14%
# `CC(=O)Nc1cccc(-c2nnc(-c3ccc(C)cc3)o2)c1` is listed with ?	-14%	10%
